Compound activity as filed in PubChem.
NS1 function inh: blocks influenza NS1 protein function | 270,000 compounds, 0.4% hits | S. cerevisiae slowed by influenza A NS1, growth recovery by OD600 | Potency, µM (series often up to 46.1 µM), without a hit: at the top dose activity, positive = more growth; note: actives are rising curves; nearly all actives have a fitted effect of over 50% in size
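S. cerevisiae expressing influenza A NS1, grown in glucose, washed, then diluted 1:100 into pH 6.0 -URA galactose medium with 23 nl compound. Growth recovery read as OD600; NS1-free strain serves as control.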
SARS PLP yeast: SARS-CoV PLP inhibition in yeast | AID 485353 | 330,000 compounds, 0.19% hits | S. cerevisiae expressing SARS-CoV PLpro, growth rescue; control for the full effect not named in the record | Potency, µM (top dose mostly 32.9 µM), inactives show at the highest dose activity, positive = growth rescue; note: 0% is about no effect; nearly all actives have a fitted effect of over 55% in size; growth read by luminescence after 48 h
RE007 growth inh: less growth of the S. pombe RE007 Vpr strain | S. pombe RE007 Vpr strain, BacTiter-Glo ATP luminescence, 24 h; control for the full effect not named in the record | Potency, µM (series often up to 92.2 µM), without a hit: top-dose activity change, negative = less growth | 360,000 compounds, 0.21% hits | AID 651644; active = well fitted falling curve with a large enough effect; inconclusive = small, poorly fitted or top-dose-only effect; inactive = no such curve, though single readings can be large or run the other way;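 note: % is set by controls: 0 for no effect and ±100 for the full control effect; nearly all actives have a fitted effect of over 50% in size; the assay follows cell death caused by Vpr and the record does not say whether a fall means rescue or toxicity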
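Fission yeast RE007 carrying one integrated HIV-1 vpr copy, seeded at OD 0.01 in PMG+AL medium with 23 nL pinned compound. Grown 24 h at 30 degrees; viability read by BacTiter-Glo luminescence after 5 min.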
Lassa entry inh: blocks Lassa virus binding to or entry into cells; Lassa virus pseudotype entry inhibition, cell reporter; control for the full effect not named in the record; Potency, µM (highest dose often 37.9 µM), without a hit: top-dose activity change, negative = inhibition, hits mostly inhibitors; 300,000 compounds, 1.2% hits; AID 540256; active means well fitted inhibition curve with a large enough effect; inconclusive means small, poorly fitted or top-dose-only effect, or effect the other way; inactive means flat fitted curve, though single readings scatter; tested in HEK293 cells; note: % is set by controls: 0 for no effect and ±100 for the full control effect; nearly all actives have a fitted effect of over 50% in size; luciferase read-out
Cruzain inh noDet: cruzain (T. cruzi) inhibition without detergent | P25779 | purified cruzain, Z-FR-AMC fluorescence, no detergent | Potency, µM, for inactives: max response, negative = inhibition, most hits filed as inhibitors | 200,000 compounds, 2.3% hits; active = well fitted curve in the direction sought with a large enough effect; inconclusive = small, poorly fitted or top-dose-only effect, or another doubt; inactive = no such curve, though single readings can be large; an effect the other way counts as inactive or inconclusive;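 note: plate controls were enzyme without inhibitor for no effect and buffer without enzyme for full effect; nearly all actives have a fitted effect of over 40% in size; top concentration of the series not given in the record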
Target sequence (P25779 123-467 limits assumed): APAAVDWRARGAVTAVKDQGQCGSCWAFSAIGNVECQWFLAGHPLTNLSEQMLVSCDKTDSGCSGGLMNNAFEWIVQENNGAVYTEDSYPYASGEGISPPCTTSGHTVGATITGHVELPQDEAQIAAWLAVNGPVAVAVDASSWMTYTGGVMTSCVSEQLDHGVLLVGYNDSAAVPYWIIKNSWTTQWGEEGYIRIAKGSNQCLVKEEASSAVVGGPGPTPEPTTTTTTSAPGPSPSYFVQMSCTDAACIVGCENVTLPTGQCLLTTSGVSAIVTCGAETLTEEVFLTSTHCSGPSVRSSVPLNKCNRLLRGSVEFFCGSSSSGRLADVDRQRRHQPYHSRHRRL
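Detergent-free condition (0.00005% Triton X-100) in acetate buffer pH 5.5 with DTT. 1.5 nM enzyme and compound were pre-mixed 15 min, then 2 uM Z-FR-AMC substrate added; reaction progress from fluorescence change between first and third reads (60 s).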
2A StopGo: FMDV 2A StopGo reporter, luciferase signal; human cells with a luciferase reporter of 2A StopGo recoding; control for the full effect not named in the record; Potency, µM (doses to about 57.9 µM), for the others: at the top dose signal change, negative = less light; 410,000 compounds, 1.2% hits; AID 1159524; active = well fitted falling curve with a large enough effect; inconclusive = small, poorly fitted or top-dose-only effect; inactive = no such curve, though single readings can be large or run the other way; tested in HEK293T cells; note: % is set by controls: 0 for no effect and ±100 for the full control effect; nearly all actives have a fitted effect of over 45% in size; luciferase light after 4 h
Cruzain inh Det: inhibitors of Trypanosoma cruzi cruzain with detergent. P25779. purified cruzain, Z-FR-AMC fluorescence, 0.01% Triton. Potency, µM, for inactives: max response, negative = inhibition, most hits filed as inhibitors. 200,000 compounds, 0.43% hits. AID 1478; active = well fitted curve in the direction sought with a large enough effect; inconclusive = small, poorly fitted or top-dose-only effect, or another doubt; inactive = no such curve, though single readings can be large; an effect the other way counts as inactive or inconclusive;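 note: plate controls were neutral wells for no effect and buffer without enzyme for full effect; nearly all actives have a fitted effect of over 40% in size; top concentration of the series not given in the record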
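Z-FR-AMC hydrolysis (2 uM substrate) by cruzain (1.5 nM) monitored kinetically at ex 360/em 450 nm after 15 min room-temperature compound exposure; 0.01% Triton X-100, pH 5.5, 5 mM DTT.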
Marburg entry inh: inhibitors of Marburg virus binding or cell entry; Marburg virus pseudotyped entry inhibition, cell reporter; control for the full effect not named in the record; about a third of the inactives were read at about 46 µM; Potency, µM (top dose mostly 37.8 µM), for the others: at the top dose activity change, negative = inhibition, most hits filed as inhibitors; 300,000 compounds, 1.8% hits; AID 540276; active = well fitted inhibition curve with a large enough effect; inconclusive = small, poorly fitted or top-dose-only effect, or effect the other way; inactive = flat fitted curve, though single readings scatter; tested in HEK293 cells; about a fifth of its hits are not listed in these tables; note: % is set by controls: 0 for no effect and ±100 for the full control effect; luciferase read-out
Active calls of the source: *; ? = inconclusive; . = not tested or not shown; [ ] = remark or other dose. Unless noted, calls come from the whole dose curve; as a rule, active means well fitted rising curve with a large enough effect; inconclusive means small, poorly fitted or top-dose-only effect; inactive means no such curve, though single readings can be large or run the other way. Potency is the fitted concentration of half-maximal effect.

Results follow in this order: Marburg entry inh, Lassa entry inh, NS1 function inh, RE007 growth inh, SARS PLP yeast, 2A StopGo, Cruzain inh noDet, Cruzain inh Det
COCCn1c(-c2cccc(Br)c2)nc2c(c(=O)c3ccccc3n2C)c1=O
 : ., ., -1%, 0%, 0%, -28%, ., .
Cc1[nH]c2ccccc2c1C(=O)C(=O)N1CCCc2ccccc21
 : ?, -13%, -2%, 8%, -38%, -8%, 6%, -9.5%
Brc1ccc(/C=C/C=N/Nc2nc3ccccc3s2)cc1
 : 0%, 59%[14.3 µM], ?, -4%, -10%, 74%[activator], 4µM*, -1.0%
O=C1c2oc3ccccc3c(=O)c2C(c2cccc(Cl)c2)N1c1ccccn1 (stereo not given)
 : 14%[46.1 µM], -7%[46.1 µM], ., ., ., -1%, 12%, -0.2%
COC(=O)c1c(NC(=O)CSc2nnc(C)c(=O)[nH]2)sc(C)c1C
 : 1%[46.1 µM], 17%[46.1 µM], ., -10%, -1%, -17%, ., .
CC(C)CC(=O)Nc1ccccc1-c1nnn(CC(=O)N2CCOCC2)n1
 : 0%, -6%, -3%, 3%, -1%, ., -20%, -0.4%
CCOC(=O)c1[nH]c(C)c(C(=O)NCc2cccc(OC)c2)c1C
 : ?, -21%[46.1 µM], ., ., ., -10%, -11%, -6.5%
NC(=O)c1c(NC(NC(=O)c2ccco2)(C(F)(F)F)C(F)(F)F)sc2c1CCCC2
 : 15%, ?, 6%, 4%, -1%, -10%, -20%, -7.2%
Cc1noc(C)c1COC(=O)c1ccccc1Sc1ccccc1C#N
 : ?, ?, -13%, 8%, 0%, -28%, -8%, -2.3%
NC(=O)CN1CCN(C(=O)Nc2ccccc2)CC1
 : ., ., -5%, -4%, -3%, 1%, 7%, 2.9%
Cc1ccc(-c2nnc(Oc3ccc(NC(=O)c4ccccc4)cc3)c3ccccc23)cc1
 : -14%, 5%, 5%, 16%, -12%, ?, ?, -3.8%
Cc1ccc(NC(=O)C2CCCN2C(=O)NC2CCCCC2)c(C)c1 (stereo not given)
 : -5%, 5%, -6%, 22%, 8%, 13%, 14%, 0.4%
CCOc1ccc(CCNc2ncnc3onc(C)c23)cc1OCC
 : ., -12%[46.1 µM], ., ., ., ?, 10%, -1.4%
CCCC/C=C1\CCc2c([nH]c3ccccc23)C1=O
 : 19%[46.1 µM], 23%[46.1 µM], -4%, 5%, -1%, 35%[activator], ., .
CC(C)CC(=O)Nc1ccc(C(=O)NN2C(=O)c3ccccc3C2=O)cc1
 : 14%, 0%, -11%, 7%, 17%, -14%, 5%, -1.2%
CC(C)(C)c1ccc(C(=O)NCC(=O)NNC(=O)c2ccccc2O)cc1
 : 2%, -16%, ., -4%, 28%, -3%, ., .
CN(C(=O)CSc1nnc(-c2c[nH]c3ccccc23)o1)C1CCS(=O)(=O)C1 (stereo not given)
 : 1%[46.1 µM], -6%[46.1 µM], ., 7%, 5%, 3%, ., .
CC(C)Oc1cccc(C(=O)O)c1
 : 2%, -13%, -9%, -14%, -2%, -9%, -9%, 1.9%
CS(=O)(=O)N1CCN(c2nc(-c3ccc(F)cc3)cs2)CC1
 : -2%, 15%, 3%, 9%, -9%, -4%, -1%, -2.2%
O=C(Cn1nc(-c2ccccc2F)ccc1=O)Nc1ccc(S(=O)(=O)N2CCCCCC2)cc1
 : ?, -16%, -17%, -1%, 6%, 0%, -14%, -6.3%
COc1ccc2nc(NC(C)=O)sc2c1
 : 2%, 1%, -10%, -9%, 0%, 35%[activator], -6%, 0.5%
CN(C)S(=O)(=O)c1ccc(NC(=O)c2cccnc2)cc1
 : 2%, 1%, 14%, -10%, -4%, -17%, -11%, 4.7%
CCN1C(=O)[C@H]2[C@@H](c3ccc(C)cc3)N3C(=O)N(c4ccc(C)cc4)C(=O)[C@@]3(Cc3ccccc3)[C@H]2C1=O
 : ., ., -24%, 11%, 5%, -16%, ., .
O=C(c1cc(N2CCOCC2)c(F)cc1[N+](=O)[O-])N1CCOCC1
 : 2%, 15%, 19%, 20%, 0%, -9%, ., .
O/N=C/c1ccccc1OCc1ccc(Cl)cc1
 : -13%, ?, -109%, -18%, -28%, 20%, -14%, -10%
Cc1ccccc1N=C1Nc2ccccc2CS1
 : ?, ?, -10%, ?, 3%, 5%, -2%, -6.1%
CCOc1cc(/C=C2/SC(=O)N(CC(=O)N3CCc4ccccc4C3)C2=O)ccc1OCC(=O)O
 : 28%, -2%, 17%, 17%, 4%, 0%, ?, -8.5%
O=S(=O)(Cc1ccc(Cl)cc1Cl)c1ccc(Cl)cc1
 : -22%[46.1 µM], ?, ., 2%, ., 20%, ., .
COc1cc(C(=O)Nc2cc(C(F)(F)F)ccc2N2CCOCC2)ccc1O
 : 17%, ?, -4%, 7%, -7%, -20%, ?, -9.8%
COc1ccc(S(=O)(=O)N2CCC(C(=O)NCc3cccnc3)CC2)cc1C
 : 0%, -1%, 3%, -5%, 0%, 1%, ., .
Cc1ccc(NC(=O)Cn2ncc3c4ccccc4n(Cc4ccccc4)c3c2=O)cc1Cl
 : ?, 4%[46.1 µM], ., ., ., -11%, -15%, -4.1%
Cn1c(CO)cnc1SCc1ccc(F)cc1
 : 9%[46.1 µM], 5%[46.1 µM], ., -1%, 2%, 31%[activator], ., .
COc1ccc(C(=O)Nc2cccc(C)n2)cc1S(=O)(=O)N1CCCc2ccccc21
 : ?, ?, ., -8%, ., -27%, ., .
O=C(Nc1cccnc1)c1ccc(Cl)c(S(=O)(=O)N2CCCC2)c1
 : ., ., 11%, 0%, -4%, -11%, ., .
C/C(=N\NC(=O)c1cccs1)c1cccnc1
 : -5%[46.1 µM], -1%, ., -7%, 2%, 6%, ., .
Clc1ccccc1Cc1noc(CN2CCN(c3cnccn3)CC2)n1
 : ?, 3%, -5%, -3%, 0%, -25%, ., .
Cc1ccc(NC(=O)Cn2c(=O)n(Cc3ccc4c(c3)OCO4)c(=O)c3ccccc32)c(C)c1
 : ?, 7%[46.1 µM], ., ., ., -24%, -17%, -2.2%
O=c1cc(N2CCOCC2)cnn1-c1ccccc1
 : 17%, ?, 10%, -7%, 15%, 54%[activator], -6%, -3.2%
COC(=O)c1c(C)[nH]c(C(=O)OCC(=O)NC(C)(C)C)c1C
 : -18%[46.1 µM], -14%[46.1 µM], -3%, 7%, 0%, -10%, ., .
CCC(C(=O)N/N=C(\C)c1cccnc1)c1ccccc1 (stereo not given)
 : ., ., 8%, -10%, 0%, -23%, ., .
COc1ccc(NC(C)=O)cc1NC(C)c1nc2sc(C)c(C)c2c(=O)[nH]1 (stereo not given)
 : 1%[46.1 µM], -2%, ., 2%, -3%, -19%, ., .
Cc1nn(C)c(C(=O)NC(=S)Nc2ccc([N+](=O)[O-])cc2)c1Cl
 : 0%[46.1 µM], 17%[46.1 µM], -43%, 7%, -3%, -20%, ., .
CCOC(=O)C1(C/C(C)=N/NC(N)=O)CC(C)(C)OC1=O (stereo not given)
 : ?, 9%, -2%, -5%, 30%, 0%, 2%, -1.2%
CCCCNC(=O)c1sc2nc(C)cc(COC)c2c1-n1cccc1
 : -11%, -16%, -97%, 19%, -9%, -25%, 5%, 2.6%
CC(=O)Nc1cccc(NC(=O)COC(=O)CO/N=C(\C)c2ccc3c(c2)OCO3)c1
 : 4%, 2%, -5%, -1%, -3%, 16%, ., .
COc1ccc(NC(=O)Cn2c(=O)n(Cc3ccco3)c(=O)c3sc4ccccc4c32)cc1OC
 : -1%[46.1 µM], -4%[46.1 µM], ., ., ., ?, ?, -9.6%
Cc1ccc(C)n1-n1cnc2sc3c(c2c1=O)CCC3
 : 0%, 0%, -5%, 16%, -4%, ., 4%, 0.1%
Cc1c(C(=O)N2CCN(CCc3ccccc3)CC2)oc2ccccc12
 : 12%, -22%[14.3 µM], -6%, -8%, -7%, 1%, -7%, 5.5%
COc1ccc(N(CC(=O)Nc2ccc(C(N)=O)cc2)S(=O)(=O)c2ccc(C)c([N+](=O)[O-])c2)cc1
 : ?, -14%, 3%, 17%, 3%, -5%, ., .
COC(=O)c1ccc(/C=N/NC(=O)CC(=O)NCc2cccnc2)cc1
 : 4%[46.1 µM], 5%[46.1 µM], ., 20%, 5%, -8%, ., .
COC(=O)c1cc(C(=O)OC)n(Cc2ccc(F)cc2)n1
 : 14%, 4%, -13%, 14%, -6%, ., 10%, 0.2%
Cc1nn2c(N)csc2nc1=O
 : 4%, ., 4%, ., 3%, ., 1%, -0.1%
OC(CN1CCCCC1)Cn1c2ccc(Cl)cc2c2cc(Cl)ccc21 (stereo not given)
 : 10µM*, -29%, -8%, 1%, 0%, ?, ., .

Quoted at random: 4 entries already listed, in no set order.
Results follow in this order: Marburg entry inh, Lassa entry inh, NS1 function inh, RE007 growth inh, SARS PLP yeast, 2A StopGo, Cruzain inh noDet, Cruzain inh Det
CC(=O)Nc1cccc(NC(=O)COC(=O)CO/N=C(\C)c2ccc3c(c2)OCO3)c1
 : 4%, 2%, -5%, -1%, -3%, 16%, ., .
O=C(Nc1cccnc1)c1ccc(Cl)c(S(=O)(=O)N2CCCC2)c1
 : ., ., 11%, 0%, -4%, -11%, ., .
COc1ccc2nc(NC(C)=O)sc2c1
 : 2%, 1%, -10%, -9%, 0%, 35%[activator], -6%, 0.5%
CC(C)Oc1cccc(C(=O)O)c1
 : 2%, -13%, -9%, -14%, -2%, -9%, -9%, 1.9%
